# From PubChem BioAssay
# KCNQ2 block: KCNQ2 channel blockers in CHO-K1 cells – cell-based, FluxOR thallium flux, B-score, primary screen (AID 2156). 20 min; active compounds read low; only compounds with negative scores are shown here; some inactives read as strong as hits. B-score at 10 µM. 310,000 tested, 1.1% active;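 active = fluorescence ratio B-score at most minus 3 library SDs, with starting brightness B-score within 2 library SDs, cut at about -5.5 in these data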
# Target sequence (O88943 whole entry, looked up): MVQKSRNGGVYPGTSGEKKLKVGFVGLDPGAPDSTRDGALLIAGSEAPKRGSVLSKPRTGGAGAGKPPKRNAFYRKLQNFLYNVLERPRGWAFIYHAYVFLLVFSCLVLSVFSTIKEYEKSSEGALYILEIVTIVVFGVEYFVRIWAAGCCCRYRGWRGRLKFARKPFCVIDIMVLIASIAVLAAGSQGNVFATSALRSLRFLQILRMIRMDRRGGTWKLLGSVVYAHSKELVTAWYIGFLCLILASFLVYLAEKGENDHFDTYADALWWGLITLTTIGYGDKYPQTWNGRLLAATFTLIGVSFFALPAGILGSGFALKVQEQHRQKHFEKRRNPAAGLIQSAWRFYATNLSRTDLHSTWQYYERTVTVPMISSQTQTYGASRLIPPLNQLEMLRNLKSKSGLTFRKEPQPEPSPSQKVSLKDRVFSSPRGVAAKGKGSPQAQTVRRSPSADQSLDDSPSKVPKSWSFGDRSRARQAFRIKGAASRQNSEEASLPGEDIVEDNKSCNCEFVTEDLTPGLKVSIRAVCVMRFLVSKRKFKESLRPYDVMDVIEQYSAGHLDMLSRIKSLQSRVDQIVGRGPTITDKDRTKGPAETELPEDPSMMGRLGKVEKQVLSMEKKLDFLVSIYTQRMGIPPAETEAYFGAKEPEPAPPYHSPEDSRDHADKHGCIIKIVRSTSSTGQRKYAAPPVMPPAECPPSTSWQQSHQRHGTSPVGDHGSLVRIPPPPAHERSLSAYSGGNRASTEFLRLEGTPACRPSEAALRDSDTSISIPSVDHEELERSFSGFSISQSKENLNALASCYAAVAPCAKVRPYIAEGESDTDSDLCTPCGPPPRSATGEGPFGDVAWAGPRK
# KCNQ2 block baseline: also measured in KCNQ2 block; calls as there; B-score; measured here: initial fluorescence intensity artifact check;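 brightness before thallium and not channel activity; 0 = typical well and far values either way flag optical interference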
# An asterisk follows results filed as active; i = inactive. The list is partial, so the mix of outcomes need not match the whole.
No.	Molecule	KCNQ2 block	KCNQ2 block baseline
1	COc1ccccc1/C=N/NC1=NCCCCC1	i	0.01
2	COc1cc(C2CC(c3cccs3)=NN2C(=O)CCl)ccc1OC(F)F (configuration not stated)	i	-1.3
3	Cn1c(Nc2cccc(Cl)c2)nc2ccccc21	i	1.5
4	CCC1(c2ccccc2)NC(=O)N(CC(=O)Nc2cc(S(=O)(=O)N3CCCCC3)ccc2OC(C)C)C1=O (configuration not stated)	i	-2.7
5	CCN1CCN(c2ccc(S(=O)(=O)N3CCCCC3)cc2NC(=O)c2cccc(C(F)(F)F)c2)CC1	i	0.54
6	c1ccc(Cc2noc(CN3CCN(CCOc4ccccc4)CC3)n2)cc1	i	-0.68
7	Fc1ccc(CN2CCN(c3ncnc4scc(-c5ccccc5)c34)CC2)cc1	i	-0.55
8	O=C(COC(=O)c1c(F)cccc1F)NCCNC(=O)COC(=O)c1c(F)cccc1F	i	0.14
9	O=C(N/N=C/c1cc2c3c(c1O)CCCN3CCC2)c1ccccc1O	i	-1.6
10	COc1ccc(OC)c(C(=O)c2oc3ccccc3c2NC(C)=O)c1	i	1.5
11	CC(C)C(=O)Nc1ccc(C(=O)c2ccccc2)cc1	i	-1.3
12	O=C(Nc1nc2cc(Cl)ccc2s1)C1CCCN(S(=O)(=O)c2cccc3cccnc23)C1 (configuration not stated)	i	0.01

# Further records follow.
No.	Molecule	KCNQ2 block	KCNQ2 block baseline
13	Cc1cc(NS(=O)(=O)c2ccc(NC(=O)CCCOc3ccccc3C)cc2)nc(C)n1	i	-0.37
14	CCc1cc(=O)oc2cc(C)c(CN3CCCC3)c(O)c12	i	4.3
15	C=CCn1c(CCNC(=O)C(C)(C)C)nc2ccccc21	i	-1.6
16	Nc1c(Cl)cc(-c2csc(NCCc3nc4cc(Cl)c(Cl)cc4n3CCCO)n2)cc1Cl	i	-1.7
17	Cc1ccc(Cl)cc1N1CCN(S(=O)(=O)c2cc3c(cc2C)NC(=O)CO3)CC1	i	2
18	CCN1CCN(C(=O)C2=CC(c3ccc(OC)cc3)=NS(=O)(=O)N2C)CC1	i	-0.03
19	Cc1ccc(NCc2ccc(O)c3ncccc23)cc1	i	-2.7
20	CN(C)CCN1CC(C(=O)O)CC1=O (configuration not stated)	i	0.67
21	C/C(=N\NC(=O)c1cc(O)cc(O)c1)c1ccc(NC(=O)Cc2ccccc2)cc1	i	0.94
22	COc1ccc(OC)c(NC(=O)C(C)Oc2ccc(Br)cc2)c1 (configuration not stated)	i	0.04
23	Nc1cccc2c1C(=O)N(C(=O)c1ccc(Cl)c(S(=O)(=O)N3CCCCCC3)c1)C2=O	i	0.77
24	Cc1ccc(C)c(N2CCN(C(=O)c3ccc4c(c3)c(C)c(C)n4C)CC2)c1	-6.6*	-0.26*

# Remaining list, next part
No.	Molecule	KCNQ2 block	KCNQ2 block baseline
25	O=c1cc[nH]c2c(Cl)cccc12	i	-0.04
26	CCOC(=O)C(c1ccccc1)C(Nc1ccc(Cl)c(Cl)c1)c1ccccn1 (configuration not stated)	i	-1.2
27	S=C(NCCc1ccccc1)Nc1ccc(N2CCCCC2)cc1	i	1.2
28	CN(CC(=O)N1CCCC1)S(=O)(=O)c1cc(Cl)ccc1Cl	i	-0.87
29	CN(C)C(=O)CN1CCN(Cc2nc(CC3CC3)no2)CC1	i	0.57
30	CCCOc1ccc(C(CC(=O)O)NC(=O)CC(c2ccccc2)c2ccccc2)cc1 (configuration not stated)	i	0.15
31	CCOc1cc(C(=O)Nc2ccc(N3CCOCC3)cc2)cc(Br)c1OC	i	-0.32
32	CCOc1ccc2oc(C(=O)OCC(=O)NC(=O)NC)c(C)c2c1	i	-0.25
33	COc1ccc(-c2noc(N3CCC(C(=O)N(C)c4ccccc4C)CC3)n2)cc1	i	0.88
34	CCOC(=O)N1CCN(C(=O)c2c(-c3ccccc3Cl)noc2C)CC1	i	-0.55
35	O=C1CCc2cc(S(=O)(=O)N3CCCCC3)cc3c2N1CCC3	i	3.5
36	COc1ccc(OC)c(CN(CCCN2CCOCC2)S(=O)(=O)c2ccc(NC(C)=O)cc2)c1	i	-1.4

# Next entries:
No.	Molecule	KCNQ2 block	KCNQ2 block baseline
37	Cc1cccc2c1cnn2C(=O)CCC(=O)N1CC(C)CC(C)C1 (configuration not stated)	i	-0.85
38	NNc1nc2cc3c(cc2s1)OCCO3	i	1.9
39	COc1ccc(OC)c(-c2csc(NC(=O)C3=NN(c4ccccc4)C(=O)CC3)n2)c1	i	1.3
40	Cc1nn(-c2ccccc2)c(N2CCCC2)c1/C=N/NC(=O)c1cccc(S(=O)(=O)Nc2ccc(Cl)cc2)c1	i	1.2
41	CCOn1c(=O)c(-c2cccs2)[n+]([O-])c2ccccc21	i	-0.45
42	CCCCc1ccc(N/C(N)=N/c2nc(C)cc(C)n2)cc1	i	-0.5
43	Cc1ccc(C(c2nnnn2C2CCCCC2)N2CCc3ccccc32)cc1 (configuration not stated)	-5.6*	-0.09*
44	O=C(Nc1ccccc1)C1=C[C@@H](C2CC2)C[C@@H](OCCCCO)O1	i	-0.5
45	CCN(CC)C(=O)c1sc(NC(=O)c2cc(-c3ccc(C)s3)nc3ccccc23)c(C(=O)OC)c1C	i	0.5
46	CCOC(=O)C1(CCOc2ccccc2)CCN(Cc2ccc3nonc3c2)CC1	i	0.83
47	O=C1/C(=C/c2cccc(Cl)c2)SC(=S)N1CCC(=O)N1CCCCC1CCO (configuration not stated)	i	0.58
48	O=C1c2ccccc2C(=O)N1CCCc1nc(-c2ccccn2)no1	i	0.01

# Continuation.
No.	Molecule	KCNQ2 block	KCNQ2 block baseline
49	OC1(c2cccnc2)CCN(Cc2nnnn2C2CCCCC2)CC1	i	0.08
50	O=C(NCC1COc2ccccc2O1)c1cccs1 (configuration not stated)	i	0.7
51	COc1ccc2cc(C(=O)O)ccc2c1	i	0.56
52	CC(=O)c1cnc(SCc2ccc(Cl)cc2)nc1C	i	0.13
53	Cc1[nH]c2nc3ccccc3n2c(=O)c1CCC(C)C	i	-0.98
54	Cc1cc(N2CCC(C)CC2)nc(NCc2ccccc2)n1	i	-0.46
55	CCC(C)CN1CCC(CO)(Cc2ccccc2Cl)CC1 (configuration not stated)	i	-2.4
56	CN(C)C(=O)c1ccc(-n2cccn2)nc1	i	1.8
57	COc1ccccc1OCC(=O)Nc1ccc(CSc2ccccc2)cc1C	i	-0.15
58	O=C(COC(=O)c1ccccc1[N+](=O)[O-])c1ccc(C2CCCCC2)cc1	i	-0.76
59	CCOc1ccc(NC(=O)c2ccc(NC(=O)COC(=O)c3ccc(NC(=O)CC#N)cc3)cc2)cc1	i	1.3
60	O=C(CCCc1ccccc1)NCCCN1CCOCC1	i	1.9

# (more compounds)
No.	Molecule	KCNQ2 block	KCNQ2 block baseline
61	N#CCOC(=O)[C@H](Cc1c[nH]c2ccccc12)NS(=O)(=O)c1ccc(Cl)cc1	i	-0.77
62	Cc1cc2c(ccc3[nH]onc32)n1	i	1.3
63	CCOc1cc(CNCc2ccccc2)ccc1OCC(=O)NC1CCCCC1	i	-0.72
64	Cc1onc(-c2ccccc2Cl)c1C(=O)Nc1nnc(-c2ccc(Cl)cc2Cl)s1	i	-1.2
65	Cc1no[n+]([O-])c1COc1cccc(/C=N/Nc2nncn2N)c1	i	-0.29
66	NC(=O)c1nsc(C(=O)N(CC(=O)NCc2ccc3c(c2)OCO3)C2CCCC2)c1N	i	-1.2
67	O=C(CN1C(=O)NC2(CCCCCC2)C1=O)Nc1ccc2c(c1)CCC2	i	-1.2
68	COc1ccc(C(=O)NC(=S)NC2CCSC2=O)cc1 (configuration not stated)	i	-0.11
69	COc1ccc2cc(CN(CC3COCCO3)S(=O)(=O)c3ccc(Cl)cc3)c(=O)[nH]c2c1 (configuration not stated)	i	-0.27
70	COc1ccc(C(=O)NCCNc2ccc([N+](=O)[O-])cc2)cc1	i	2.6
71	CC(=O)Nc1ccc(NC(=O)c2ccc(-n3c(C)ccc3C)cc2)cc1	i	-1.1
72	CCN(CC)C(=O)C1CCCN(c2ccc([N+](=O)[O-])cc2[N+](=O)[O-])C1 (configuration not stated)	i	-0.31

# Going on with the list:
No.	Molecule	KCNQ2 block	KCNQ2 block baseline
73	CCn1c2ccccc2c2cc(NC(=O)C/C(C)=N/NC(=O)c3ccccc3N)ccc21	i	-1.6
74	Cc1ccc(NC(=O)CCl)c(C)c1	i	0.01
75	COc1ccc(CNC(=O)C2=C(C)C(=O)OC23CCC(C)CC3)cc1 (configuration not stated)	i	0.61
76	Cc1cc(C)c2c(n1)nn1c(NCCCN(C)C)cc(C)nc21	i	2
77	CCN(CC(=O)Nc1c(F)cccc1F)C(=O)c1ccc(C2SCCS2)cc1	i	0.02
78	COc1cc(NC(=O)COc2ccc(F)cc2)nc(OC)n1	i	-0.06
79	Cc1ccc(NS(=O)(=O)c2ccc3c(c2)N(C)CCO3)cc1	i	-0.78
80	COC(=O)c1ccc(COC(=O)CNC(=O)CNC(=O)c2ccc(OC)cc2)cc1	i	0.56
81	c1ccc(CO/N=C(\c2ccc(C3CC3)nc2)C2CC2)cc1	-7*	1.4*
82	Cc1nc(CC(C)C)cc(C(=O)N2CCCC(Nc3ccc(C)c(C)c3)C2)n1 (configuration not stated)	i	0.93
83	CCOc1ncccc1C(=O)N(CC)CC(=O)Nc1ccc(NC(C)=O)cc1	i	1.7
84	CC1=NN(c2ccc(C(=O)OC(C)C)cc2)C(=O)/C1=C\C=C\c1ccco1	i	-1.8

# Other results:
No.	Molecule	KCNQ2 block	KCNQ2 block baseline
85	C/C(=N/O)c1c(O)c(C)c(-c2ccccc2)n(-c2ccccc2)c1=O	i	2.9
86	CCOC(=O)c1c(NC(=O)CNCCOC)sc2c1CCCC2	i	-0.13
87	COc1ccc(C2C(C(N)=O)=C(C)Nc3nc(CCCO)nn32)cc1 (configuration not stated)	i	0.45
88	N#CCCN(Cc1cccnc1)C(=S)NC(=O)c1ccco1	i	-1
89	COCC(C)n1c(SCC(=O)NC(=O)Nc2ccc3c(c2)OCCO3)nc2ccccc2c1=O (configuration not stated)	i	2
90	CC(C)(C)c1ccc2c(c1)N(CC(=O)N1CCCC1)C(=O)CO2	i	-0.04
91	CCOc1nc(Oc2cccc(C(=O)O)c2)nc(Oc2cccc(C(=O)O)c2)n1	i	-0.69
92	COc1ccc(C(=O)N2CCC(C(=O)NCc3ccccn3)CC2)cc1	i	-2.3
93	O=C1N/C(=C\c2ccccc2)c2ccccc21	i	0.19
94	Cc1occc1C(=O)Nc1ccc(S(=O)(=O)N2CCCC2)cc1	i	0.25
95	Cc1cc(Nc2cc(F)ccc2C)n2ncnc2n1	i	-1.1
96	CCn1c(Cc2c(C)[nH]c3ccccc23)n[nH]c1=S	i	1

# (cont.)
No.	Molecule	KCNQ2 block	KCNQ2 block baseline
97	O=S(=O)(c1ccc(F)cc1)c1nc(-c2ccccc2F)oc1N1CCCCC1	i	0.07
98	O=C(/C=C/c1ccc2c(c1)OCO2)Nc1nc(-c2ccccc2)cs1	i	0.57
99	c1ccc2c(N3CCCCC3)nc(N3CCOCC3)nc2c1	i	4
100	Cc1csc(SCC(=O)N(C)CC(=O)Nc2ccccc2Cl)n1	i	-2.2
101	CCc1ccc(C2c3[nH]c4ccccc4c3CCN2C(=O)c2cc(C)nn2C)cc1 (configuration not stated)	i	0.18
102	O=C1c2cccc3c([N+](=O)[O-])ccc(c23)C(=O)N1c1ccc(Cl)cn1	-7*	-0.7*
103	COc1ccc(CNC(=O)CNC(=O)N2CC(=O)Nc3ccccc32)cc1	i	-0.01
104	O=S1(=O)CCOCCCN1Cc1ccccc1F	i	1.4
105	N#C/C(=C\c1ccccc1)c1nc2ncccc2[nH]1	i	-0.1
106	CC(=O)c1cc(-c2ccc(F)cc2)n(CCC(=O)Nc2cc(C)[nH]n2)c1C	i	0.51
107	C/C(=N/NC(=O)CSCc1ccc(Cl)cc1)c1cccc(NC(=O)c2ccccc2)c1	i	0.31
108	CC(C)(C)c1ccc(S(=O)(=O)N2CCCCC2)cc1	i	-1.4

# Three entries from above, as labelled records.
75: COc1ccc(CNC(=O)C2=C(C)C(=O)OC23CCC(C)CC3)cc1 (configuration not stated)
  KCNQ2 block: i | KCNQ2 block baseline: 0.61

76: Cc1cc(C)c2c(n1)nn1c(NCCCN(C)C)cc(C)nc21
  KCNQ2 block: i | KCNQ2 block baseline: 2

77: CCN(CC(=O)Nc1c(F)cccc1F)C(=O)c1ccc(C2SCCS2)cc1
  KCNQ2 block: i | KCNQ2 block baseline: 0.02

# (cont.)
No.	Molecule	KCNQ2 block	KCNQ2 block baseline
109	CCOc1cc(CNCCO)cc(Br)c1OCc1ccccc1Cl	-7.4*	-0.35*
110	COCc1cc(/C=N\NC(=O)COc2ccccc2)ccc1OC	i	1.6
111	COn1c(=O)c(-c2ccc(Cl)cc2)[n+]([O-])c2ccccc21	i	-0.53
112	COc1cccc(-c2nc(N3CCC(C)CC3)c3ccccc3n2)c1O	i	0.26
113	CCC(=O)c1ccc(OCC(=O)c2ccc3c(c2)NC(=O)CO3)cc1	i	-2.1
114	Oc1ccccc1/C=N/Nc1cc(N2CCCC2)nc(N2CCCC2)n1	i	-0.37
115	O=C(c1ccccc1)N1CCN(CC2CC=CCC2)CC1 (configuration not stated)	i	0.1
116	CCOC(=O)c1c(/N=C/c2ccc(C)cc2O)sc2c1CCC2	i	-0.26
117	Cc1ccc(CNC(=O)c2ccc(N3CCC4(CC3)CC(c3ccccc3)=NO4)c(NC(=O)c3ccco3)c2)cc1	i	0.14
118	CCOC(=O)c1sc(NC(=O)c2cccc(S(=O)(=O)N3CCc4ccccc43)c2)c(C#N)c1C	i	-1.1
119	COC(=O)/C(C#N)=C/c1c(N2CCCCCC2)nc2ccccn2c1=O	i	0.32
120	COc1ccc(NC(C)=O)cc1S(=O)(=O)Nc1ccccc1C(=O)N1CCCC1	i	0.26

# Additional structures follow.
No.	Molecule	KCNQ2 block	KCNQ2 block baseline
121	CCOC(=O)Nc1ccc2c(c1)N(C(=O)CN)c1ccccc1CC2	i	-0.23
122	Clc1ccc(OCc2nc3ccccc3[nH]2)cc1	i	-0.99
123	O=C(Nc1nccs1)C1CCN(S(=O)(=O)c2cccnc2)CC1	i	1.3
124	COC(=O)/C(=C\Nc1ccc(Cl)cc1Cl)NC(=O)c1ccc(Cl)cc1Cl	i	-0.85
125	O=C(O)c1cc(NC(=O)c2cccc(F)c2)cc(NC(=O)c2cccc(F)c2)c1	i	0.05
